Screening results (PubChem)
eIF4H FP inh – inhibitors of RNA binding by human eIF4H; Q15056; eIF4H fluorescence polarization binding assay; actives 0.94% (n = 290,000); inhibition, % at 35 µM; AID 2012;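 active = 50% or more with normal probe brightness, or confirmed in later tests; inconclusive = above 50% with abnormal brightness, or retests that disagree; inactive = below 50% or failed in later tests; about a fifth of its hits are not listed in these tables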;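 note: calls also rest on retests at 20 µM and on dose response follow-up; 0% = protein and probe with vehicle and 100% = probe without protein; strong numbers were not always called active; many hits fall short of the cut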
MT1-MMP act inh – inhibitors of human MT1-MMP activation; P50281; HT1080 RFP-PRO-GFP cells, GFP/RFP ratio fluorescence, overnight; percent of plate control window, DMSO zero; GFP/RFP ratio change, % at 20 µM; actives 0.061% (n = 360,000);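 active = GFP/RFP ratio change of at least 30% with cell ATP level not reduced by more than half and red fluorescence within 50% of control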; note: strong numbers were not always called active
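Material – HT1080 RFP-PRO-GFP cells · Control set – DMSO wells and RFP-L50D-GFP cells · Incubation – overnight cell settling, then overnight compound exposure, 37 °C, 5% CO2 · Compound dosing – single-point 20 µM compound, 1% DMSO · Read-out – GFP/RFP fluorescence ratio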
PABP polyA inh – PABP-poly(A) binding inhibition. PABP-poly(A) RNA binding, fluorescence polarization. AID 2014. actives 1% (n = 290,000). P11940. inhibition, % at 35 µM;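 active = 50% or more with normal probe brightness, or confirmed in later tests; inconclusive = above 50% with abnormal brightness, or retests that disagree; inactive = below 50% or failed in later tests; about a fifth of its hits are not listed in these tables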;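 note: calls also rest on retests at 20 µM and on dose response follow-up; controls were probe without protein and protein plus probe with vehicle; some compounds called inactive have numbers as strong as hits; many hits fall short of the cut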
Target sequence (P11940 whole entry, looked up): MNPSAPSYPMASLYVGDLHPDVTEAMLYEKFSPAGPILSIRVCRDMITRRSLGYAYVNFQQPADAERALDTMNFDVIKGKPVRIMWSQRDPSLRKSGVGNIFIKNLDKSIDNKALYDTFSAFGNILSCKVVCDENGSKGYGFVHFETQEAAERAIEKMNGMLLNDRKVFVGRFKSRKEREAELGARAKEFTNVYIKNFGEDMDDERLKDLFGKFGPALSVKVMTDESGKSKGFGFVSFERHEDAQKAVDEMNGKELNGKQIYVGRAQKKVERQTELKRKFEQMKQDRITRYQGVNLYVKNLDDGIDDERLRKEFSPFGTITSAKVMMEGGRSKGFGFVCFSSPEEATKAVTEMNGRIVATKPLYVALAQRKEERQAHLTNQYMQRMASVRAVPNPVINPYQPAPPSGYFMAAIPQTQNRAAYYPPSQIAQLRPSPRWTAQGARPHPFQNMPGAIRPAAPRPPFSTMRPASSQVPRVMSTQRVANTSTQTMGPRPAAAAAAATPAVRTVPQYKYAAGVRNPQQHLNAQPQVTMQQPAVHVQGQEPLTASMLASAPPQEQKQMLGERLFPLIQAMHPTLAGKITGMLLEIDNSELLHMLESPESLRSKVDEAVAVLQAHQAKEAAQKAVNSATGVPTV
HIV Env fusion – inhibitors of HIV Env-mediated cell fusion; AID 651610; actives 1.1% (n = 360,000); HeLa-JRFL Env/CEM21 cell fusion, luciferase; inhibition, % at 12.3 µM;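 active = mean replicate inhibition score of at least 50 and every replicate individually at or above 50; inconclusive = only one of the two criteria met; inactive = mean below 50 and not all replicates reaching 50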;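 note: 0% = plate neutral controls and 100% = maraviroc near 300 nM; one replicate is shown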
Rce1 inh – blocks yeast Ras-converting enzyme | Q03530 | yeast membranes, quenched prenylated peptide cleavage fluorescence | calls only | actives 0.27% (n = 290,000);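 active = fall in fluorescence gain of 50% or more versus controls, with final raw signal at or below 3038400; inconclusive = same 50% fall but final raw signal above 3038400; inactive = fall in fluorescence gain under 50%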;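 note: plate controls were neutral control wells for no effect and wells lacking membranes for full effect; tested at 10 µM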
UUG fidelity – alters start codon recognition fidelity in yeast; actives 0.13% (n = 350,000); AID 602363; S. cerevisiae UUG-firefly luciferase reporter, luminescence/redox ratio; activity score, % at 18.7 µM;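 active = replicate mean at a twofold rise or more, about +100% in these data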;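 note: firefly luciferase made from a UUG start codon reports start codon fidelity; reporter light over untreated wells divided by growth signal over untreated wells; some hits fall short of that in this replicate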
CSC inhib – cancer stem cell inhibition; cancer stem cell-like cells viability, luminescence; AID 2717; actives 1.1% (n = 300,000); inhibition, % at 7.5 µM;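 active = mean at 75% or more and at least half the replicates too; inconclusive = mean and replicates disagree; tested in HMLE shEcad cells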;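 note: 0% = median of negative and 100% = median of positive control wells; the first replicate is given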
eIF4H FP inh retest – also measured in eIF4H FP inh; calls as there; inhibition, %; compound at 20 µM; confirmation average;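 mean of two retest wells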
PABP polyA inh retest – further read-out of PABP polyA inh, marked with its call; inhibition, %; compound at 20 µM; confirmation repeats;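 mean of two retest wells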
MT1-MMP act inh RFP – also measured in MT1-MMP act inh; calls as there; RFP signal change, %; measured here: RFP expression control read;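 0 = vehicle wells; hits needed this value within 50% of zero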
Active calls of the source: *; i = inactive; ? = inconclusive; nt = no result given; & = joins results of further samples; [ ] = dose if it differs, or a comment. Some of the compounds tested; rates above refer to the full screens.

SMILES	eIF4H FP inh	MT1-MMP act inh	MT1-MMP act inh RFP	PABP polyA inh	HIV Env fusion	Rce1 inh	UUG fidelity	CSC inhib	others
Brc1ccc2c(c1)CN(CC1CCCCC1)Cc1cnnn1-2	nt	0	1	nt	-3	nt	-6	nt
CN(C)CC#CCn1c2ccccc2c2ccccc21	1	0	2	-11	9	i	-10	0
COc1ccc(OC(=O)N(C)C[C@@H]2OCc3cnnn3CCCC(=O)N([C@@H](C)CO)C[C@@H]2C)cc1	nt	5	5	nt	9	nt	-4&4&10	nt
Brc1ccc(CN2CCNCC2)s1	0	-3	-6	-20	nt	i	-7	32
O=C1CN=C(c2ccccc2)c2cc(Br)ccc2N1	-6	1	4	-4	-10	i	-4	-6
Oc1c(Cl)c(Cl)c(Cl)c(Cl)c1Cl	nt	-2	-7	nt	-52	i	-25	71
COc1cc2c(cc1OC)C1C(=O)c3ccc4c(c3OC1CO2)CC(C(C)C)O4 (stereo not given)	nt	3	-20	nt	28	nt	-1	nt
CCc1nnc(NS(=O)(=O)c2ccc(N=Cc3c(O)n(-c4ccccc4)c(=O)[nH]c3=O)cc2)s1	?	-5	2	-7	6	i	nt	-12
COc1cc(C)cc(CN2CC=C(c3ccccc3)CC2)c1O	-6	-2	1	-5	2	i	nt	-1
C1CCC(NC2CCCCC2)CC1	nt	-4	3	nt	nt	nt	-11	2
CC(=CCOc1ccc2ccc(=O)oc2c1)C1=CC(=O)C(C)(C)O1	nt	-1	-21	nt	-465	nt	-9	nt
O=C1C(c2ccccc2)=C(N2CC2)c2ccccc21	-9	4	-3	3	nt	i	nt	17
O=C(NC1CN2CCC1CC2)c1cc(Cl)c([N+](=O)[O-])c2nc[nH]c12 (stereo not given)	-2	3	4	-1	7	i	-10	-1
O=C(c1ccccc1F)N1CCC2(CC1)OCCO2	1	3	-2	9	38	i	-6	-5
O=C1NC(=O)N(Cc2ccc(F)cc2)C(=O)/C1=C/c1cccs1	-6	15	26	7	-217	i	nt	32
CCOC(=O)c1c(C)n(C(C)C)c2ccc(OC(=O)c3ccc(N4C(=O)CCC4=O)cc3)cc12	-14	5	2	9	-6	i	7	0
Cn1c(O)c(C=NC2CCN(Cc3ccccc3)CC2)c(=O)[nH]c1=O	0	1	2	-11	-13	i	nt	-8
COc1cc(CN=C(C)c2c(O)n(C)c(=O)n(C)c2=O)cc(OC)c1	-6	-3	-9	-3	8	i	nt	8
CCN1CCN(c2nc3c(c(=O)[nH]2)CCCC3)CC1	-8	1	1	-9	-3	i	-9	8
CCOc1cc2c(cc1OCC)-n1cccc1C(c1cccc([N+](=O)[O-])c1)NC2 (stereo not given)	-6	2	-6	6	23	i	13	13
COC(=O)CCCNC(=O)CN1CC(c2ccccc2)CC1=O (stereo not given)	5	-3	4	-5	nt	i	-7	-1
Nc1ccccc1C(=O)OCCc1ccccc1	nt	0	8	nt	nt	nt	-12	2
COc1ccc2[nH]c3c(c2c1)CCN=C3C	nt	-6	-1	nt	-29	nt	-10	-5
Cc1nc2ccccc2c(=O)n1-c1cccnc1	-6	-5	4	-8	-59	i	-18	-10
CCCCOc1ccc(C(C)=O)cc1Cc1c(O)[nH]c(=S)[nH]c1=O	1	-4	0	-1	-18	i	-12	-6

In the list so far, these contain a nitro group on carbon.
SMILES	eIF4H FP inh	MT1-MMP act inh	MT1-MMP act inh RFP	PABP polyA inh	HIV Env fusion	Rce1 inh	UUG fidelity	CSC inhib	others
O=C(NC1CN2CCC1CC2)c1cc(Cl)c([N+](=O)[O-])c2nc[nH]c12 (stereo not given)	-2	3	4	-1	7	i	-10	-1
CCOc1cc2c(cc1OCC)-n1cccc1C(c1cccc([N+](=O)[O-])c1)NC2 (stereo not given)	-6	2	-6	6	23	i	13	13

Additional results:
SMILES	eIF4H FP inh	MT1-MMP act inh	MT1-MMP act inh RFP	PABP polyA inh	HIV Env fusion	Rce1 inh	UUG fidelity	CSC inhib	others
Clc1ccc(C(OCCN2CCCCC2)c2ccccc2)cc1 (stereo not given)	nt	1	1	nt	-22	nt	-6	0
CN1CCN(c2ncnc3c2cnn3C)CC1	-9	2	4	-6	6	i	-25	-10
CCC/C(=N\O)c1c[nH]c2ccccc12	-2	6	6	9	nt	i	-3	nt
C=CC1CN2CCC1CC2C(OC(C)=O)c1ccnc2ccc(OC)cc12 (stereo not given)	-1	-2	-1	11	1	i	nt	-15
Cc1cccn2c(NCC3CCCO3)c(C(C)C)nc12 (stereo not given)	-2	-3	1	12	-67	i	-10	-1
COc1ccc2c(CCN)c[nH]c2c1	-9	-1	4	-4	nt	i	-5	-5
COc1ccc(/C=C2\C(=O)NC(=S)N(C)C2=O)cc1C	-1	-12	3	1	-6	i	nt	-12
O=c1[nH]c(=S)n(Cc2ccc(F)cc2)c(O)c1C=NCC1CCCO1 (stereo not given)	-8	-7	-5	-5	-12	i	nt	-7
c1ccc2nc(OCCN3CC3)ccc2c1	-3	nt	nt	2	-18	i	nt	24
CCCOP(=O)(OCCC)C(NC(=O)c1ccccc1)=C(Cl)Cl	4	-3	-2	5	0	i	nt	-10
CCOC(=O)CC(NC(=O)C(Cc1ccc(N(CCCl)CCCl)cc1)NC(C)=O)C(=O)OCC (stereo not given)	6	-1	3	16	50	i	nt	50
CC(=O)O[C@@H]1/C=C/[C@](C)(O)C[C@@H](C)C/C=C/[C@H]2[C@H](O)[C@@](C)(O)[C@@H](C)[C@H]3[C@H](Cc4ccccc4)NC(=O)[C@@]312	nt	-3	3	nt	nt	i	-9	-10
O=C(C(=O)N1CCOCC1)c1cn(CCCOc2ccccc2)c2ccccc12	-5	0	0	-20	-11	i	-4	-1
CCCCn1c(=O)c(C=Nc2ccc(Cl)cc2)c(O)n(Cc2ccco2)c1=O	6	-24	0	4	25	nt	nt	41
COC(=O)C1=C(c2cc3ccccc3o2)C[C@@H]2CC[C@H]1N2C(=O)NCc1ccco1	nt	2	-2	nt	1	i	-5	-10
O=C(Cc1ccccc1)OCC(=O)N1CCN(S(=O)(=O)c2ccc(Cl)cc2)CC1	nt	3	1	nt	-1	i	nt	-8
COc1ccc(OCC#CCN2CCC(C)CC2)cc1	6	-3	3	8	-20	i	nt	nt
C=CCOC(=O)c1ccccc1N	nt	0	7	nt	nt	nt	-10	-5
CCc1nn(CC(=O)N2CCC3(CC2)OCCO3)c(=O)c2cccn12	nt	-5	-2	nt	-12	i	-18	-14
Cc1ccc(CN2CCN(Cc3ccccc3)CC2)cc1	-1	7	5	-5	-8	i	nt	20
CN1C(=O)C(c2ccccc2)C(=O)N(C)C1=O	nt	-2	0	nt	-8	i	-4	-11
Cc1cccnc1NC1=NCC(C)S1 (stereo not given)	-3	2	4	9	nt	i	-13	-5
C[C@]12CCC(=O)CC1CCC1C2CC[C@]2(C)C(OC(=O)CCC(=O)O)CCC12 (stereo not given in full)	3	3	-3	8	7	i	2	-2
FC(F)(F)c1cccc(C2NCc3ccccc3-n3cccc32)c1 (stereo not given)	8	6	-4	-8	4	i	nt	-2
CCOC(=O)C(NC(C)=O)C(OC(C)=O)c1cccc(N(CCCl)CCCl)c1 (stereo not given)	5	2	1	2	nt	i	-3	-24

The results go on.
SMILES	eIF4H FP inh	MT1-MMP act inh	MT1-MMP act inh RFP	PABP polyA inh	HIV Env fusion	Rce1 inh	UUG fidelity	CSC inhib	others
COc1cccc(-n2c(O)c(C=NCCN3CCNCC3)c(=O)[nH]c2=S)c1	7	4	6	10	1	i	nt	-3
COC(=O)C1=C(c2cc3ccccc3o2)C[C@@H]2CC[C@H]1N2C(=O)NCc1ccccc1	nt	-3	-5	nt	2	i	8	-15
COc1ccc(OC)c(C(O)C2CCCCN2)c1 (stereo not given)	-3	-1	0	11	-26	i	-17	-10
O=C1CC(=O)N(c2ccc(Cl)cc2Cl)C(=O)N1	?	-54	7	?	-66	i	-15	-15
CO[C@H]1C=C2CCN(C)[C@H]2C2c3cc4c(cc3C(=O)O[C@@H]21)OCO4 (stereo not given in full)	nt	1	0	nt	-4	nt	-18	-17
CCCC1C(C#N)=C(N)Oc2c1c(=O)oc1ccccc21 (stereo not given)	25	-1	0	0	nt	i	2	-4
O/N=C/c1c[nH]c2ccccc12	-11	7	-2	-2	nt	i	nt	-8
Cc1ccc(CS(=O)(=O)Cc2ccc(C(=O)N3CCC4(CC3)OCCO4)o2)cc1	-1	4	5	4	-4	i	-1	-6
O=C1CN=C(c2ccccc2F)c2cc(Cl)ccc2N1	-10	nt	nt	19	nt	i	-10	-8
C[C@H]1CN([C@@H](C)CO)C(=O)CCCn2nncc2CO[C@H]1CN(C)C(=O)Oc1ccc2ccccc2c1	nt	-2	4	nt	-2[16.7 µM]	nt	3&3&11	nt
C=CCn1c(O)c(C(CC)=NCCc2c[nH]c3ccccc23)c(=O)[nH]c1=O	-6	3	-11	-2	11	i	nt	13
Cc1ccccc1-n1c(O)c(/C=N/NC(=O)c2ccncc2)c(=O)[nH]c1=O	28	-6	1	19	-16	i	nt	-10
CSc1ccccc1C(=O)C1CCCN(Cc2ccccn2)C1 (stereo not given)	-2	-1	0	12	-1	i	-28	-12
COC(=O)C(C)Oc1cc(C)cc2oc(=O)c3c(c12)CCC3 (stereo not given)	8	10	12	7	nt	i	4	-19
O=C(O)c1cccc(NC(=O)N2C[C@H]3C[C@@H](C2)c2cccc(=O)n2C3)c1	-10	3	1	2	nt	nt	3	2
Clc1cccc(CN2CCCCC2c2cccnc2)c1 (stereo not given)	-3	0	-5	15	nt	i	-10	-10
COC(=O)C1=C(c2ccc(OC(F)(F)F)cc2)C[C@@H]2CC[C@H]1N2C(=O)NCCOc1ccc(OC)cc1	nt	-1	-17	nt	-9	nt	3	3
Cc1cc(OCC(=O)N2CCCN(C)CC2)ccc1Cl	0	0	3	-2	nt	i	-1	13
O=C1NC2NC(=O)N([N+](=O)[O-])C2N1 (stereo not given)	-4	1	3	-8	2	i	-21	-9
NS(=O)(=O)OC(CCc1ccccc1)C(Cl)(Cl)Cl (stereo not given)	-2	5	4	11	nt	i	-16	3
N#CC(c1cccnc1)N1CCOCC1 (stereo not given)	-2	0	1	4	5	i	-12	-6
COc1cc(/C=C2\C(=O)NC(=O)N(c3ccccc3)C2=O)c([N+](=O)[O-])cc1OC	31	1	2	35	10	i	-11	nt
O=C(c1c[nH]cc1-c1ccccc1)c1cccc2ccccc12	-9	nt	nt	8	-49	i	-15	17
CC(=O)Nc1ccc2c(c1)CC1(C(=O)N(C)C(=O)N(C)C1=O)C1CCCN21 (stereo not given)	47	-2	3	63	-9	i	-30	nt	eIF4H FP inh retest=10;PABP polyA inh retest=25
CC[C@@]1(O)C(=O)OCc2c1cc1n(c2=O)Cc2cc3c(NC(=O)CN)cccc3nc2-1	32	-1	-4	21	69*	i	6	108*
CC12CCC3C(CCC4CC(=O)C(C(O)C(F)(F)F)CC43C)C1CCC2O (stereo not given)	nt	1	-1	nt	-33	nt	5	nt
CCC(=NCc1cccnc1)c1c(O)n(Cc2ccccc2)c(=O)[nH]c1=O	-14	-5	-3	0	-22	i	-24	4
COc1cccc(-n2c(CN3CCN(C)CC3)nc3ccc([N+](=O)[O-])cc3c2=O)c1	-3	-3	1	8	12	i	nt	-8
O=C1C2CCCN2C(c2cccnc2)N1c1ccc(Cl)c(Cl)c1 (stereo not given)	-9	2	7	12	-39	i	-18	4
O=C(c1cccc(C(F)(F)F)c1)C1CCCN(Cc2ccccc2O)C1 (stereo not given)	-6	3	2	-7	-1	i	0	nt
